Assay outcomes deposited in PubChem BioAssay by several laboratories.
BJeLR lethal: BJeLR cell viability loss; BJeLR (HRASV12) viability, CellTiter-Glo ATP luminescence, 48 h; reference of the scale not given here; inhibition, % (test concentration not listed); 300,000 compounds, 0.17% hits;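 active = replicate mean above 50%; inconclusive = above 50% but judged a plate artefact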;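 note: 50 nL library stock added to about 25 µL; numbers are from one replicate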
Bead autofluor: flagged as autofluorescent in microsphere protease counterscreen | compound autofluorescence counterscreen, microsphere flow cytometry; hits give high values | fluorescence intensity (no concentration beside the values) | 360,000 compounds, 3.1% hits | AID 624483;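 active = at least 3 SD above the mean of all compounds, about 16000 in these data; inconclusive = too few beads counted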;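 note: 100 nL of 1 mM stock went into each well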
Mtb hypoxia rep: reduces hypoxia-regulated biosensor signal in M. tuberculosis. M. tuberculosis hypoxia-regulated fluorescent reporter, fluorescence. fluorescence inhibition, % (concentration not given with the values). 300,000 compounds, 0.1% hits. AID 1159583;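 active = 35 to 45% if threefold the growth effect, above 45% if 1.5-fold the growth effect; inactive = the rest, general growth blockers included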;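 note: wells of about 50 µL received 100 nL stock; 0% = vehicle wells and 100% = reference inhibitor wells; whole bacteria with a GFP reporter of the hypoxia response; strong numbers were not always called active; many hits fall short of the cut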
Sa ugtP lethal: growth inhibition of S. aureus ugtP deletion strain; 330,000 compounds, 0.54% hits; AID 1259309; S. aureus RN4220 ugtP deletion, OD600 growth, 16 h; some inactives read as strong as hits; growth inhibition, % (test concentration not listed);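 active = z-score under -3 and OD600 up to 0.15 on both plates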;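 note: plate controls were untreated wells for no effect and antibiotic for full effect; wells of about 80 µL received 100 nL stock; the first replicate is given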
PrP UTR inh: suppresses PrP 5' UTR mRNA reporter expression. cell-based PrP 5' UTR mRNA reporter, plate reader. inhibition, % (test concentration not listed). 340,000 compounds, 0.35% hits. AID 488862;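 active = every replicate at 50% or more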;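 note: 0 = median of the neutral control wells; tested in H4 reporter cells; numbers are from one replicate; inactives centre near -14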
RN4220 kill: S. aureus RN4220 growth inhibition; OD600, 16 h; 330,000 compounds, 0.33% hits; inhibition, % (no concentration beside the values); AID 1259311;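 active = z-score of -3 or lower and OD600 up to 0.18 on both plates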;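 note: plate controls were untreated cells for no effect and reference antibiotic for full effect; stock transfer was 100 nL into about 80 µL; one replicate is shown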
Mtb hypoxia rep growth: also measured in Mtb hypoxia rep; calls as there; growth inhibition, %; measured here: M. tuberculosis growth (absorbance);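 0% = vehicle and 100% = reference antibiotic; read after six days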
Starred values were filed as active, the others as inactive; ? = inconclusive; . = not tested or not shown.

Each structure is followed by: BJeLR lethal	Bead autofluor	Mtb hypoxia rep	Mtb hypoxia rep growth	Sa ugtP lethal	PrP UTR inh	RN4220 kill
CSc1ccccc1C(=O)NCCSc1ccc(C)cc1
→ -8.3	4276	-5.8	-10.9	13.5	-9.6	8.0
COc1cc(/C(C)=N/N2CCN(Cc3ccc(C)cc3)CC2)ccc1O
→ -3.5	4241	.	.	.	-22.8	.
CC(=O)c1cccc(NC(=O)c2ccc(NC(=O)CCS(=O)(=O)c3cccs3)cc2)c1
→ -0.6	5866	2.0	5.6	7.4	-5.6	1.1
CC1CN(C(=S)NC(=O)c2ccc([N+](=O)[O-])cc2)CC(C)O1 (stereo not drawn)
→ 8.6	2308	.	.	-3.6	-14.3	4.1
CCN(C(=O)CSc1nnc(-c2ccncc2)n1C)C1CCS(=O)(=O)C1 (stereo not drawn)
→ 1.2	?	4.4	9.0	-8.1	-7.3	0.6
CCOc1cc(S(=O)(=O)NC2CC(C)(C)NC(C)(C)C2)ccc1Cl
→ 0.2	2969	1.3	-8.7	5.6	3.6	-0.1
CCCCOc1ccc(CONS(=O)(=O)c2ccc(NC(C)=O)cc2)cc1Cl
→ 2.4	2103	-2.0	5.0	70.3	-8.2	-16.0
O=C(Nc1ccc(S(=O)(=O)N2CCCC2)cc1)c1cccnc1
→ 3.9	2070	.	.	5.2	-0.6	4.1
O=c1cc(NC2CCCCC2)[nH]c(=O)[nH]1
→ -4.2	3671	-3.4	-7.9	9.3	-29.5	1.7
CCCNC(=O)C(=O)NCC(c1ccc2c(c1)OCO2)N1CCN(c2ccc(F)cc2)CC1 (stereo not drawn)
→ -3.6	5911	-10.4	-1.8	11.1	-25.6	2.3

Next part; it opens with the 2 that closed the last part.
Each structure is followed by: BJeLR lethal	Bead autofluor	Mtb hypoxia rep	Mtb hypoxia rep growth	Sa ugtP lethal	PrP UTR inh	RN4220 kill
O=c1cc(NC2CCCCC2)[nH]c(=O)[nH]1
→ -4.2	3671	-3.4	-7.9	9.3	-29.5	1.7
CCCNC(=O)C(=O)NCC(c1ccc2c(c1)OCO2)N1CCN(c2ccc(F)cc2)CC1 (stereo not drawn)
→ -3.6	5911	-10.4	-1.8	11.1	-25.6	2.3
O=c1[nH]cc(NCCc2ccccc2)c(=O)[nH]1
→ -3.3	3879	.	.	.	-32.3	.
CCOC(=O)C1(CCOc2ccccc2)CCN(CC2CC2)CC1
→ -14.1	3212	13.0	-0.6	3.9	-12.3	7.3
CCCc1c(C(=O)N/N=C/c2ccc(OCc3ccccc3)c(OC)c2)nnn1-c1nonc1N
→ 1.5	5282	.	.	.	-15.9	.
Cc1cccc(-n2c(=O)c3c(n4cnnc24)-c2ccccc2CC32CCCCC2)c1
→ -3.2	5170	.	.	-11.5	-12.6	1.0
CC(C)NC(=S)NN=C1c2ccccc2-c2ccccc21
→ 2.1	3149	5.1	7.7	6.8	-16.7	-0.4
COc1ccc(/C=N/Nc2ccccc2C(=O)O)cc1
→ 1.8	3645	.	.	.	-18.0	.
O=C(O)CC(Cc1ccc(Cl)cc1)C(=O)Nc1ccc([N+](=O)[O-])cc1 (stereo not drawn)
→ -4.1	2153	13.7	10.6	10.9	-9.5	5.3
COc1ccc(CN(C)C(=O)/C=C/c2ccc(S(=O)(=O)N3CCOCC3)cc2)cc1F
→ .	6198	1.3	4.4	4.9	-18.0	2.5
COc1ccc(-n2cc(-c3ccccc3)c3c(NCCOCCO)ncnc32)cc1
→ -0.3	3773	4.1	6.6	6.4	10.5	-0.5
COc1cc2c(cc1OC)C(C)N(C(=O)c1sccc1C)CC2 (stereo not drawn)
→ -1.1	5504	3.5	1.0	5.8	0.7	3.8
C=CCNCC#CCOc1ccc(OC)cc1
→ 3.5	4506	.	.	9.0	5.8	5.5
O=C(COC(=O)[C@H](Cc1c[nH]c2ccccc12)NC(=O)c1cccs1)NCc1ccccc1
→ -11.5	2415	0.6	-4.4	4.7	-17.5	3.1
Cc1ccc(Cl)cc1NC(=S)N(CCCN1CCOCC1)Cc1ccccn1
→ -4.6	10438	8.7	8.3	-3.9	-28.4	3.5
Cc1ccc(NC(=O)CSc2nnc(CNC(=O)c3c(F)cccc3Cl)o2)cc1
→ 0.2	3146	.	.	2.9	-25.7	0.8
CCN(CC)c1ccc(/C=N/NC(=O)CNC(=O)c2ccc3c(c2)OCCO3)cc1
→ 10.9	4690	.	.	.	-3.1	.
O=C(COc1ccc(S(=O)(=O)N2CCOCC2)cc1Cl)NC1CC1
→ -6.5	5251	2.2	10.0	17.1	-8.5	1.5
CCOC(=O)N1CCC(NC(=O)C2CCN(S(=O)(=O)c3ccc4c(c3)oc(=O)n4C)CC2)CC1
→ -0.2	4597	3.7	-2.8	7.1	-28.0	6.1
Cc1ccc(NC(=O)CSc2nn3c(=O)c(C)nnc3s2)cc1Cl
→ 1.0	4940	6.5	2.4	9.6	-15.8	7.6
Cc1ccc(NC(=O)COC(=O)CCc2ccc(S(=O)(=O)N3CCOCC3)cc2)cc1F
→ 1.8	5334	12.8	2.0	7.7	-27.2	2.7
N#Cc1ccc(C(=O)NC(=S)N2CCN(C=O)CC2)cc1
→ .	2758	0.3	-0.8	-5.9	-8.6	-2.6

Profiles from above. Values in the order: BJeLR lethal, Bead autofluor, Mtb hypoxia rep, Mtb hypoxia rep growth, Sa ugtP lethal, PrP UTR inh, RN4220 kill
C=CCNCC#CCOc1ccc(OC)cc1 is entered as 3.5, 4506, ., ., 9.0, 5.8, 5.5
Cc1ccc(NC(=O)CSc2nn3c(=O)c(C)nnc3s2)cc1Cl is entered as 1.0, 4940, 6.5, 2.4, 9.6, -15.8, 7.6

Copied from the results shown, 2 compounds:
Each structure is followed by: BJeLR lethal	Bead autofluor	Mtb hypoxia rep	Mtb hypoxia rep growth	Sa ugtP lethal	PrP UTR inh	RN4220 kill
C=CCNCC#CCOc1ccc(OC)cc1
→ 3.5	4506	.	.	9.0	5.8	5.5
O=C(COC(=O)[C@H](Cc1c[nH]c2ccccc12)NC(=O)c1cccs1)NCc1ccccc1
→ -11.5	2415	0.6	-4.4	4.7	-17.5	3.1

The list continues:
Each structure is followed by: BJeLR lethal	Bead autofluor	Mtb hypoxia rep	Mtb hypoxia rep growth	Sa ugtP lethal	PrP UTR inh	RN4220 kill
N#Cc1ccc(C(=O)N2CCN(S(=O)(=O)c3ccc(Cl)s3)CC2)cc1
→ .	9217	0.8	3.0	0.7	-9.3	2.3
Cc1cc(C)c2cc(CN(Cc3cccs3)Cc3nnnn3CC3CCCO3)c(=O)[nH]c2c1 (stereo not drawn)
→ -3.7	10964	7.3	11.1	-2.3	12.6	6.4
CCOc1cccc(-c2c(C(=O)NN=Cc3ccsc3)nnn2-c2nonc2N)c1
→ .	.	17.1	6.2	10.5	.	4.0
Cc1ccc(N2C(=O)CN(Cc3sccc3C)C2=S)cc1C
→ -17.3	2489	.	.	.	-4.8	.
O=C(c1ccccc1)c1ccc(Oc2ncccn2)cc1
→ -0.2	4212	3.1	-1.2	3.5	-15.8	7.5
O=C(NN1C(=O)NC2(CCCCC2)C1=O)c1cc(F)cc(F)c1
→ .	3348	4.9	-4.6	4.4	-7.9	5.5
CCOC(=O)C(Cc1c(F)cccc1F)(NC(C)=O)C(=O)OCC
→ 0.0	21936*	-5.3	12.5	-2.9	-3.5	0.4
Cc1cc(C(=O)COC(=O)c2ccc(Br)o2)c(C)n1C
→ 39.3	4223	6.8	8.9	2.0	-105.1	6.6
CC1CCCC(n2cnc3cc(C(=O)O)ccc32)C1C (stereo not drawn)
→ -9.5	4244	16.6	7.1	2.2	-9.4	5.9
CSc1nsc(SCC(=O)Nc2c(C)n(C)n(-c3ccccc3)c2=O)n1
→ 6.0	20801*	4.7	11.8	1.5	2.9	2.2
CCOc1ccc(NC(=O)C2CCN(S(=O)(=O)c3c(C)n[nH]c3C)CC2)cc1
→ -0.2	2723	.	.	-4.2	-10.2	8.5
Cc1cccc(N2CCN(C3=NC(=O)C(Cc4ccccc4)S3)CC2)c1 (stereo not drawn)
→ 2.5	2242	-0.6	-0.4	-0.1	-13.8	-2.0
CC(C)CC(C(=O)Oc1ccc2c3c(c(=O)oc2c1)CCC3)N1C(=O)c2ccccc2C1=O (stereo not drawn)
→ -4.4	11401	10.2	3.9	-5.2	-5.3	6.6
Cc1ccccc1CCNC(=O)C1CCN(S(=O)(=O)c2ccc(-n3cnnn3)cc2)CC1
→ 1.4	3628	-3.5	3.3	0.0	-21.0	-16.6
COC(=O)C1=C(c2cccc(OC)c2OC)CC2CCC1N2C(=O)N1CCC(C)CC1 (stereo not drawn)
→ .	.	12.1	6.3	3.7	.	1.7
Cc1cc2cc3c(cc2nc1SCc1ccccn1)OCCO3
→ 10.0	2133	11.5	0.1	0.5	-44.0	4.4
CCOC(=O)C1(Cc2ccc(Cl)cc2)CCN(C(=O)c2cnc(C)cn2)CC1
→ 12.9	4045	5.6	-3.5	7.6	-0.4	2.8
Cc1ccc(CCSc2ccc(C(C)C)cc2)cn1
→ 0.3	2370	.	.	.	-1.6	.
COc1ccc(S(=O)(=O)N2CCOCC2)cc1NC(=O)C1CCCCN1S(=O)(=O)c1ccccc1 (stereo not drawn)
→ .	3934	11.7	7.6	-0.5	-11.0	-3.9
COc1ccc(NC(=O)CSc2nnc(C)s2)cc1S(=O)(=O)N1CCOCC1
→ .	3292	-6.1	-0.9	3.7	-25.6	-1.4
CC1CCCC(NC(=O)NC(=O)COC(=O)c2ccc(O)cc2O)C1C (stereo not drawn)
→ .	5814	7.9	2.8	-7.5	-31.2	10.2
Cc1ccc(C(=O)ON=C2CCN(S(=O)(=O)c3ccccc3)CC2)cc1
→ -9.4	3912	5.3	-2.0	27.6	-2.7	2.0
CCCN(CCC)CCCNC(=O)c1ccc2c(c1)N(CC)C(=O)c1ccccc1S2=O (stereo not drawn)
→ 13.0	?	-4.8	4.3	-1.5	4.4	-2.5
CCCCNC(=O)CN(CCc1ccccc1)S(C)(=O)=O
→ 9.0	9836	-1.0	-0.2	8.1	-32.8	2.6
COc1cccc(CNS(=O)(=O)c2ccc3c(c2)N(C(C)=O)CCO3)c1
→ 5.4	5849	10.8	3.4	-7.3	-21.3	6.8
Cn1cc(Br)c(C(=O)N2CCCCCC2)n1
→ -2.3	5620	-5.2	13.6	-0.7	3.1	2.0
COc1ccc(C=NNC(=O)c2cccnc2)cc1CN1CCCc2ccccc21
→ .	.	9.7	-0.8	-8.1	.	-13.7
COc1cc(-c2noc(C)c2C(=O)NCCCN2CCCC2=O)cc(OC)c1OC
→ .	2788	10.0	3.1	-0.8	-11.9	6.1
CCOC(=O)C1(CCOc2ccccc2)CCN(C2Cc3ccccc3C2)CC1
→ 6.2	5208	3.4	-6.4	6.5	-9.9	2.2
O=C(CN1CCN(Cc2ccccc2)CC1)Nc1ccc(Br)cc1
→ -5.1	3258	14.8	2.6	7.3	-22.9	-3.8

The last 2 entries of the section above lead into the next:
Each structure is followed by: BJeLR lethal	Bead autofluor	Mtb hypoxia rep	Mtb hypoxia rep growth	Sa ugtP lethal	PrP UTR inh	RN4220 kill
CCOC(=O)C1(CCOc2ccccc2)CCN(C2Cc3ccccc3C2)CC1
→ 6.2	5208	3.4	-6.4	6.5	-9.9	2.2
O=C(CN1CCN(Cc2ccccc2)CC1)Nc1ccc(Br)cc1
→ -5.1	3258	14.8	2.6	7.3	-22.9	-3.8
COC(=O)C(NC(C)=O)(Nc1sc2c(c1C(N)=O)CCCC2)C(F)(F)F (stereo not drawn)
→ -5.9	8243	6.0	-3.0	13.7	-27.1	2.6
CCC(C)[C@@H](C(=O)Nc1ccc2c(c1)OCO2)N1Cc2ccccc2C1=O (stereo partly drawn)
→ 1.6	4107	.	.	7.4	12.6	2.6
O=S(=O)(Nc1ccc(N2CCOCC2)cc1)c1ccc(Cl)s1
→ 13.7	4156	-15.2	-3.9	1.7	-1.3	0.7
COC(=O)c1ccc(N2CCN(C)CC2)c(NC(=O)c2ccc(-c3ccc(Cl)cc3)o2)c1
→ 0.5	5494	10.4	-1.5	5.4	-21.7	1.8
COC(=O)c1ccc2c(=O)n(C3CCCCC3)c(SCC#N)nc2c1
→ 1.9	4090	-3.4	7.8	13.8	2.5	0.1
Cc1ccc(S(=O)(=O)CCC(=O)N(C)C2CCCCC2)cc1
→ 1.0	4856	-1.1	5.4	-0.7	-12.8	-0.4
O=C(NN=Cc1ccc(N2CCCCC2)o1)c1ccccc1[N+](=O)[O-]
→ .	.	1.2	1.0	-2.2	.	4.3
CCCn1c(SC(C)C(=O)NC2CC2)nnc1-c1ccncc1 (stereo not drawn)
→ .	2993	-5.1	-3.2	-2.3	-10.4	-3.1
